# MgrA DNA FP = S. aureus MgrA-DNA binding modulation; fluorescence polarization; inhibition, %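 (about 10 µg/mL by stock and volumes)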; actives 0.13% (n = 84,000); AID 602314;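 active = above 50% in either of two replicates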;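 note: 0% = protein plus DNA without compound and 100% = DNA alone without protein; higher means less MgrA bound to DNA so lower polarization; one replicate is shown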
# S aureus helic = blocks Staphylococcus aureus DNA helicase; AID 485395; inhibition, %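 (tested at about 80 µM)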; purified S. aureus helicase, fluorescence unwinding assay; about half of the hits fall short of the stated cut; actives 0.05% (n = 120,000);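 active = both duplicates at 50% or more, or one of them with a favoured structure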;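 note: 0% = mean of negative control wells and 100% = mean of positive control wells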
# * = called active by the depositor; x = no result given; & = joins results of further samples.
canonical_smiles | MgrA DNA FP | S aureus helic
CNc1c(C)n(C)n(-c2ccccc2)c1=O | x | 9
COC(=O)CCS(=O)(=O)c1ccc(Br)cc1 | -0.9 | -4
CCOC(=O)N1CCN(C(=O)COC(=O)C(C)N=C2NS(=O)(=O)c3ccccc32)CC1 (stereo unspecified) | x | 23
Cc1cc(NC(=O)c2ccccc2)n(CCOC(=O)c2ccccc2)n1 | -1.5 | -7
COc1ccc(OCc2nnc(SC(C)c3nc4ccccc4c(=O)[nH]3)n2C)cc1 (stereo unspecified) | 2.0 | -8
Cc1ccc(C(=O)N[C@H](C(=O)NC2CCCCC2)C(C)C)cc1 | x | -8
O=C(COCC(=O)N1CCCc2ccccc21)N1CCCc2ccccc21 | 0.8 | 7
CC(C)(C)Nc1nc(NC(C)(C)C)nc(N2CCNCC2)n1 | 6.3 | 7
CC(C)Oc1ccc(C(=O)NCc2ccco2)cc1 | x | 9
CNc1ccc(Cl)cc1C(=O)NC(C)(C)C | -2.4 | x
CCSCCOC(=O)C1=C(C)N(C)C(=O)NC1c1cc2c(cc1[N+](=O)[O-])OCO2 (stereo unspecified) | 2.6 | x
COc1ccc(C2C(C(N)=O)C(=O)NC(O)(c3ccccc3)C2C#N)cc1 (stereo unspecified) | 0.9 | -1
CCN(CC)c1ccc(C(=O)Nn2c(-c3ccc(OC)c(OC)c3)nc3ccccc3c2=O)cc1 | 0.3 | x
CN(CCNc1nc(-c2ccccc2)no1)Cc1ccccc1 | x | 3
CCOc1ccc(S(=O)(=O)NCC(C)(C)N2CCOCC2)cc1 | x | -7
COc1ccc(-c2nnn(CC(=O)N(CC3CCCO3)C(C(=O)NC3CCCCC3)c3cccs3)n2)cc1 (stereo unspecified) | -0.3 | 1
NC(=O)C12CCC3CC(CC(C3)C1)C2 | x | 18
Cc1cccc(N2C(=O)CS/C2=N\NC(=O)c2cccnc2)c1C | 4.9 | -4
CC(=O)Nc1c(O)nc(SCC(=O)N(C2CCCCC2)C2CCCCC2)[nH]c1=O | 3.1 | 0
COc1cccc(/C=C/C(=O)N2CCN(c3n[nH]c(=O)[nH]c3=O)CC2)c1OC | x | 4
CCOC(=O)c1[nH]c2ccccc2c1NC(=O)C(C)C | x | 14
S=C(NCC1CCCO1)N1CCN(C2CCCCC2)CC1 (stereo unspecified) | 4.2 | 16
Cn1cc(C(=O)N2CCCc3ccccc32)c(-c2ccc3c(c2)OCCCO3)n1 | x | -1
FC(F)(F)c1cc(-c2noc(-c3ccc4c(c3)CCO4)n2)cc(C(F)(F)F)c1 | x | -3
Cc1ccc(SCc2cc(=O)n3nc(-c4ccco4)sc3n2)cc1 | x | 15
Cc1ccc(-c2csc(Nc3ccccc3)[n+]2NC(=O)c2ccncc2)cc1 | -0.3 | -9
CCN(Cc1c(C#N)c2ccccc2n1C)c1ccccc1 | x | 10
C/S(=N\S(=O)(=O)c1ccccc1)c1ncc(Cl)cc1C(F)(F)F (stereo unspecified) | x | 1
Cc1nnc(SCc2ccccc2C(=O)O)n1C | -1.0 | 6
Cn1c(C(=O)NCCN2CCN(c3ccccc3F)CC2)cc2c(=O)n(C)c3ccccc3c21 | x | -11
NC(=O)c1c(NC(=O)COC(=O)c2ccc(Br)o2)sc2c1CCC2 | x | 7
Cc1scc(-c2ccccc2)[n+]1CCO | -1.2 | 3
OC(C#CCN1CCCC1)(c1ccccc1)C1CCCC1 (stereo unspecified) | -2.5 | 9
CSc1nc(C)c(CCC(=O)O)c(C)n1 | x | -11
Cc1cc(C(=O)Oc2ccc(C#N)cc2)c(C)s1 | x | 11
CC(C(=O)Oc1ccc2c(c1)OCO2)N1C(=O)c2ccccc2C1=O (stereo unspecified) | x | 4
O=C(NCCc1csc2nc(-c3ccccc3)nn12)c1cccs1 | 0.2 | -13
COC(=O)c1sc(-c2ccc(F)cc2)cc1NC(=O)C(F)(F)F | 0.7 | x
CC(C)(C)C1CCC(C(=O)On2c(-c3cccc(Cl)c3)nc3ccccc3c2=O)CC1 (stereo unspecified) | -0.1 | x
O=C(NC1(O)C(=O)c2ccccc2C1=O)c1cnn(-c2ccccc2)c1C(F)(F)F | -0.9 | x
COc1ccc(-c2csc(Cc3nnc(N4CCOCC4)n3-c3ccccc3)n2)cc1 | x | 8
COc1ccc(CNc2ccc3cn[nH]c3c2)c(OC)c1C | 1.6 | 2
CC(NC(=O)C1CCCN(C(=O)c2cc3sccc3n2C)C1)C12CC3CC(CC(C3)C1)C2 (stereo unspecified) | x | 14
Cc1cccc(CCNC(=O)c2cc3c(C)nc4ccccc4c3o2)c1 | x | -14
CCCCc1nnc(N)s1 | 1.1 | 4
CC1=C(C(=O)N2CCCCC2)C(c2ccc(O)cc2)C2=C(CC(C)(C)CC2=O)N1 (stereo unspecified) | -0.7 | -2
CCOC(=O)COc1ccc2c3c(c(=O)oc2c1)CCC3 | x | 7
O=C(CCCn1sc2ccccc2c1=O)NCCc1ccccc1 | 1.6 | 20
CN(C)/C=N/N1CC(O)=C(c2nc3ccccc3s2)C1=N | x | 2
N#CC1=C(N)NC(SCC(=O)Nc2ccc(Br)cc2)=C(C#N)C12CCCCC2 | 1.6 | 0
CN=c1scc(C)n1/N=C/c1c(Cl)cccc1Cl | -2.3 | x
CCCCN(C(=O)c1ccccc1)c1ccccc1 | -1.6 | -1
O=C(COC(=O)c1cccc(F)c1)Nc1cc(Cl)cc(Cl)c1 | -0.1 | 10
COC(=O)C1=C2C(=O)NCCN2C2=C(C(=O)CCC2)C1c1ccc(OC)c(OC)c1 (stereo unspecified) | -5.9 | -4
CC1(C)COC(=O)C1OC(=O)c1ccccc1 (stereo unspecified) | x | 14
CN1c2ccsc2C(=O)/C(=C\Nc2ccccn2)S1(=O)=O | -0.4 | x
O=C(C1CCCN1S(=O)(=O)c1cccc2nsnc12)N1CCN(Cc2ccc3c(c2)OCO3)CC1 (stereo unspecified) | x | 9
CC(C)(C)OC(=O)C1CCC(C(=O)Oc2ccc3c4c(c(=O)oc3c2)CCCC4)CN1 (stereo unspecified) | 0.5 | 14
O=C(CSc1ccccc1)Nc1cccc(C(=O)O)c1 | 9.7 | 11
CC12CN(S(=O)(=O)c3ccccc3)CC(C)(CN(S(=O)(=O)c3ccccc3)C1)C2 | x | 7

# (continued)
canonical_smiles | MgrA DNA FP | S aureus helic
FC(F)(F)c1ccc2nnnn2c1 | 2.4 | -4
C=CCOc1ccc(/C=C/C(=O)N2CCN(S(=O)(=O)c3cccs3)CC2)cc1 | x | -13
OCCNc1ncnc2c1sc1nc(-c3ccccc3)c3c(c12)CCCC3 | x | 6
Cc1cc(NC(=O)CCn2ccc(C)n2)c2ccccc2n1 | x | 10
COC(=O)c1ccc(OCC(O)CN2CCC(Cc3ccccc3)CC2)cc1 (stereo unspecified) | x | -17
Cc1nccn1-c1cc(C(C)C)c(C#N)c2nc3ccccc3n12 | -3.1 | 16
Cc1ccc(-c2c(C)n([O-])c(C)c(C)[n+]2=O)cc1 | 4.2 | 0
O=C(/C=C/c1ccccc1)Nc1ccc(Oc2ccc(F)cc2F)nc1 | 0.3 | x
NS(=O)(=O)c1ccc(CNC(=O)CCC2CCCCC2)cc1 | x | -17
CN1C(=O)CC(=O)N(C)c2ccccc21 | x | 27
Cn1c(=O)c2c(ncn2CC(=O)N/N=C/c2ccc(Br)s2)n(C)c1=O | x | 30
S=C(NCc1ccco1)Nc1ccc2[nH]ccc2c1 | 2.3 | x
O=C(O)c1cc(=O)[nH]c2c(Cl)cc(Cl)cc12 | -0.9 | x
CCCCN(C)C(=S)Nc1ccc2nc3n(c(=O)c2c1)CCCCC3 | -0.6 | 5
COc1ccc(-c2nnc(SCc3cccc(C#N)c3)o2)cc1 | 6.6 | 6
CCN(c1ccccc1C(=O)O)S(=O)(=O)c1cccc2nsnc12 | x | 4
CSc1ccccc1NC(=O)COC(=O)/C=C/c1ccco1 | x | 20
Cc1nc2ccccc2nc1CSCc1n[nH]c(=O)[nH]1 | 5.0 | 11
O=C1Nc2ccccc2/C1=C\c1cccs1 | -1.1 | x
CCc1nnc(NC(=O)c2nn(-c3ccccc3)ccc2=O)s1 | x | -15
NC1=NC(=O)C(CC(=O)Nc2ccc(C(F)(F)F)cc2)S1 (stereo unspecified) | 0.8 | -17
O=c1[nH]c(=S)n(CCc2ccccc2)c2c1CN(CCc1ccccc1)CN2 | x | -25
CC(=O)Nc1ccc(/C=C(\C#N)c2ccc(C)cc2)cc1 | -0.1 | x
CCc1c(C)nc(SCCOc2ccc(OC)cc2)[nH]c1=O | x | 6
COC(=O)[C@H]1[C@H]2C[C@H]3c4[nH]c5ccccc5c4CCN3C[C@@H]2CC[C@@H]1O | 2.2 | x
CCN(CC)CCn1c2c(c(SCC(=O)Nc3nc(C)cs3)nc1=O)CCCC2 | x | 0
Cn1c(C(=O)NCc2ccccc2Cl)cc2oc3ccccc3c21 | x | -9
Nc1ccc(S(=O)(=O)Nc2ccnn2-c2ccccc2)cc1 | 4.4&0.8 | x
Cc1cccc(C(=O)Nc2ccc(O)cc2)c1 | x | -13
COc1ccc(NC(=O)CCCN2C(=O)/C(=C\c3ccco3)SC2=S)cc1 | x | -18

# Record cards, from the list above.
# COc1ccc(-c2csc(Cc3nnc(N4CCOCC4)n3-c3ccccc3)n2)cc1 is listed with MgrA DNA FP: x; S aureus helic: 8
# Cn1c(C(=O)NCCN2CCN(c3ccccc3F)CC2)cc2c(=O)n(C)c3ccccc3c21 is listed with MgrA DNA FP: x; S aureus helic: -11
# FC(F)(F)c1cc(-c2noc(-c3ccc4c(c3)CCO4)n2)cc(C(F)(F)F)c1 is listed with MgrA DNA FP: x; S aureus helic: -3

# Next compounds follow:
canonical_smiles | MgrA DNA FP | S aureus helic
COc1ccc(Nc2nc(N3CCCC3)nc3ccccc23)c(OC)c1 | x | 6
CCSc1ccc2nnc(-c3ccc(OC)c(OC)c3)n2n1 | x | 19
Cc1c(NC(=O)C2CCN(S(=O)(=O)c3cnc[nH]3)CC2)c(=O)n(-c2ccccc2)n1C | x | 14
O=C(C1CCN(c2nc3ccccc3n3cccc23)CC1)N1CCc2ccccc21 | x | 8
CCNC(=O)NC1(C(=O)Nc2ccc3c(c2)OCCO3)CCCCC1 | -0.8 | -4
O=C(O)c1nn(CC(=O)N2N=C(c3ccc(Cl)cc3)CC2c2ccco2)c(=O)c2ccccc12 (stereo unspecified) | x | -3
COC(=O)c1nnn(CC(=O)Nc2ccccc2)c1N | x | 6
CCCCNC(=O)c1ccc2c(c1)NC(=O)C(CS(=O)(=O)Cc1ccccc1Cl)N2 (stereo unspecified) | x | -15
COc1ccc(N/N=C(\C#N)C(=O)Nc2ccccc2C(=O)O)cc1Cl | x | 9
CCN(CC)CCSc1nc(CC(C)C)nc2c1c(=O)n(C)c(=O)n2C | x | 4
COC(=O)CN(c1ccc(C(C)C)cc1)S(=O)(=O)c1c(C)[nH]c(=O)[nH]c1=O | -0.1 | 6
COc1ccc2c(C(=O)O)cc(=O)[nH]c2c1 | 1.1 | 7
COc1cccc2c1Oc1nn(-c3ccccc3)c(N)c1C2 | x | 30
CCCCn1c(=O)oc2ccc(C)cc21 | x | 1
COC(=O)c1ccc2c(=O)[nH]c(COC(=O)c3ccc(Cl)c(N)c3)nc2c1 | x | -13
O=C(O)C1CC(=O)N(CCOc2ccccc2)C1 (stereo unspecified) | x | 13
O=C(NCCc1ccccc1)c1ccc2c(=O)n3nc(Nc4ccccc4)sc3nc2c1 | x | 23
O=C(C1=C(O)C(=O)N(Cc2cccnc2)C1c1ccncc1)c1cccs1 (stereo unspecified) | x | -4
CSc1ncccc1C(=O)Nc1ccc(S(C)(=O)=O)cc1 | x | 1
O=C(O)c1cncc(C(=O)O)c1 | -4.0 | -12
N#Cc1ccc(NC(=O)COC(=O)/C=C/c2cn(-c3ccccc3)nc2-c2cc3ccccc3o2)cc1 | x | -14
O=P(O)(Cc1ccccc1)Cc1ccccc1 | -5.2 | 6
Cc1ccc(NC(=O)c2cccs2)cc1 | x | 9
O=c1c2c3c(sc2n(Cc2cccc(Cl)c2)c(=O)n1-c1ccccc1)CCC3 | -1.1 | 9
CCC(C)NS(=O)(=O)c1cc(-c2cc(C)no2)ccc1C(C)C (stereo unspecified) | x | 7
O=C(O)CCC(=O)Oc1ccccc1 | -2.5 | 4
O=C(O)c1cccn1-c1ccc(Br)cc1 | -4.4 | x
Cc1cccc(N(C)C(=O)c2cc(S(=O)(=O)N3CCc4ccccc43)cn2C)c1 | x | -12
CCN(CC)C(=O)c1sc(NC(=S)Nn2cnnc2)c(C(=O)OC)c1C | 5.9 | 5
CCCCN(C(=O)C1CCC1)c1nnc(-c2ccncc2)s1 | 1.9 | 15

# An excerpt from above in order of number of heavy atoms, rising:
canonical_smiles | MgrA DNA FP | S aureus helic
Cc1ccc(NC(=O)c2cccs2)cc1 | x | 9
O=C(C1=C(O)C(=O)N(Cc2cccnc2)C1c1ccncc1)c1cccs1 (stereo unspecified) | x | -4
Cc1cccc(N(C)C(=O)c2cc(S(=O)(=O)N3CCc4ccccc43)cn2C)c1 | x | -12

# Additional results follow.
canonical_smiles | MgrA DNA FP | S aureus helic
CCn1nc(C(=O)Nc2ccc(OC)cc2)c2ccccc2c1=O | x | 2
Cc1cc(Nc2cc(Cl)cc(Cl)c2)nc(N)n1 | -1.4 | x
COc1ccc(S(=O)(=O)NCCC23CC4CC(CC(C4)C2)C3)cc1 | 0.3 | -9
O=C(CN1c2ccccc2-c2ccccc2S1(=O)=O)N1CCCCC1 | -4.7 | 15
Cc1cc(O)cc(=O)n1Cc1ccccc1 | x | 9
CCOC(=O)c1c(C)nn(-c2ncccc2NC(=O)c2ccccc2C(=O)O)c1C | x | -17
COc1cc2c(cc1OC)C(COc1ccc(F)cc1)N(C(=S)Nc1cccc(C)c1C)CC2 (stereo unspecified) | -0.2 | 8
Clc1ccc(C2=NN=C(N3CCCC3)SC2)cc1 | -1.3 | 5

# Ordered by the number under S aureus helic (ascending): 3 from the list above
canonical_smiles | MgrA DNA FP | S aureus helic
CCOC(=O)c1c(C)nn(-c2ncccc2NC(=O)c2ccccc2C(=O)O)c1C | x | -17
CCn1nc(C(=O)Nc2ccc(OC)cc2)c2ccccc2c1=O | x | 2
COc1cc2c(cc1OC)C(COc1ccc(F)cc1)N(C(=S)Nc1cccc(C)c1C)CC2 (stereo unspecified) | -0.2 | 8

# A portion of the library. The share of hits here may be higher or lower than overall.
